Ecoli growth: E. coli growth inhibition; Escherichia coli growth, OD600, 23 h; hits give low values; OD600 absorbance (concentration not given with the values); hit rate 0.21% among 330,000;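 active means OD600 absorbance below the run mean of sample wells minus 3.6 SD, in any replicate, cut at about 0.56 in these data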;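 further: stock transfer was 300 nL into about 60 µL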
FGF22 binding: FGF22 (human) thermal shift binding. recombinant FGF22 thermal shift, SYPRO orange fluorescence; percent of sucrose octasulfate shift, DMSO zero. hit rate 1.5% among 340,000. calls only at 9.99 µM;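 active means melting point raised past a set limit in the mean and every replicate; inconclusive means no clear call; three in four hits are not shown here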
Target sequence (Q9HCT0 whole entry, looked up): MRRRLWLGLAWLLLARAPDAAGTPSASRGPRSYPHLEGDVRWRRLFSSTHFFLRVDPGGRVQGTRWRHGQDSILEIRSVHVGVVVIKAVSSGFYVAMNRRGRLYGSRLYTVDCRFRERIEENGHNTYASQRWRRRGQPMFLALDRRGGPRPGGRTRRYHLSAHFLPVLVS
MLL AF4-AF9 inh: blocks AF4 peptide binding to human AF9 | hit rate 0.47% among 350,000 | AID 651704 | AlphaScreen, biotin-AF4 peptide binding to FLAG-AF9 | P42568 | inhibition, % at 10 µM;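 active means every replicate reaching a set inhibition limit, whatever the replicate mean, cut at about 25% in these data; inconclusive means mean inhibition reaches that limit but some replicates miss it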;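 further: 0% = plate neutral control median and 100% = total signal loss; the record names both 10 and 1 µM as test concentration; the first replicate is given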
Target sequence (P42568 whole entry, looked up): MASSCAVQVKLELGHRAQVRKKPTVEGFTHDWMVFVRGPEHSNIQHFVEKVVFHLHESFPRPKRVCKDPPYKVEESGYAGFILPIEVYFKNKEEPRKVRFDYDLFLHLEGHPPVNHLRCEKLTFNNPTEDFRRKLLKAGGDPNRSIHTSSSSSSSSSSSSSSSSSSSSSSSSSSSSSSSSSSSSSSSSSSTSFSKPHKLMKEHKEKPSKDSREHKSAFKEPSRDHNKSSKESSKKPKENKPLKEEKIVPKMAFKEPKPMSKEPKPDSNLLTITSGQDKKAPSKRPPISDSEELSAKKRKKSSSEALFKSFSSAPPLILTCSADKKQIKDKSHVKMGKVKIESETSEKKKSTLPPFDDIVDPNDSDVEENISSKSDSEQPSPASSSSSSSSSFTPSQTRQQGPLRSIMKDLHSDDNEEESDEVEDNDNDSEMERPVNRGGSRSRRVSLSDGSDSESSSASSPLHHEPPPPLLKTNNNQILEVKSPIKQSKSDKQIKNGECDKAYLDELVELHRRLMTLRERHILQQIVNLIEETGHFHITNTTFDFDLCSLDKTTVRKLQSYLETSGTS
T cruzi repl: T. cruzi replication inhibition; T. cruzi beta-gal in NIH3T3, luminescence, 90 h; inhibition, % (concentration not given with the values); hit rate 1.4% among 300,000; AID 1885;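 active means mean inhibition across valid replicates above about 55%, limit read from the data; inconclusive means mean below that limit but half or more replicates reach it; inactive means mean below it, under half of replicates reach it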;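 further: signal also drops with host cell toxicity which is not excluded here; 0% = plate median of DMSO wells and 100% = zero luminescence signal; higher percent means less beta-gal luminescence so fewer parasites; stock transfer was 50 nL into about 50 µL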
A1 inh: inhibitors of the anti-apoptotic protein A1, read as caspase activation. MEF A1-2A-BIM cells, Caspase-Glo 3/7 luminescence, 3 h; percent of clofoctol response, vehicle zero. caspase activation, % (concentration not given with the values). hit rate 0.066% among 330,000;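 active means over half of replicate activation scores above 10%, or exactly half above 10 with the replicate mean above 10; inconclusive means replicate mean below 10 yet half the replicates above 10; inactive means over half of replicates below 10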;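 further: wells of about 30 µL received 50 nL stock; many hits fall short of the cut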
Beta cell apopt: beta cell apoptosis inhibition; INS-1E cytokine-induced death, ATP luminescence, 48 h; percent of positive-control rescue, neutral wells zero; protection from apoptosis, % (concentration not given with the values); AID 435005; hit rate 0.8% among 300,000;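 active means all replicates at 75% or more, or half of them and the mean; inconclusive means half reach 75% but not the mean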;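 further: 0% = cytokine-treated negative control wells and 100% = positive control rescue; higher means more ATP so stronger rescue from cytokine killing; wells of about 40 µL received 100 nL stock; the first replicate is given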
Ecoli rRNA inh: inhibits bacterial ribosomal RNA function over humanized ribosomes | E. coli WT GFP vs humanized-ribosome RFP mutants, fluorescence, 24 h; hits give low values; DMSO median 0, no signal -100 | GFP signal change (wild-type ribosome), % (no concentration beside the values) | hit rate 1.6% among 350,000;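 active means significant combined selectivity score with lowered wild-type GFP, culture density cut under 30%, mutant RFP and density less affected; inactive means any of these conditions unmet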; further: one replicate is shown; some compounds called inactive have numbers as strong as hits
UCH37 inh: inhibitors of human deubiquitinating enzyme UCH37 | Q9Y5K5 | purified proteasome/UCH37, Ub-AMC cleavage fluorescence | inhibition, % (concentration not given with the values) | hit rate 0.33% among 330,000 | AID 588478;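 active means mean of two replicates above 20%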;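 further: 0% = compound-free wells with enzyme and 100% = wells lacking proteasome; stock transfer was 100 nL into about 20 µL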
Target sequence (Q9Y5K5 whole entry, looked up): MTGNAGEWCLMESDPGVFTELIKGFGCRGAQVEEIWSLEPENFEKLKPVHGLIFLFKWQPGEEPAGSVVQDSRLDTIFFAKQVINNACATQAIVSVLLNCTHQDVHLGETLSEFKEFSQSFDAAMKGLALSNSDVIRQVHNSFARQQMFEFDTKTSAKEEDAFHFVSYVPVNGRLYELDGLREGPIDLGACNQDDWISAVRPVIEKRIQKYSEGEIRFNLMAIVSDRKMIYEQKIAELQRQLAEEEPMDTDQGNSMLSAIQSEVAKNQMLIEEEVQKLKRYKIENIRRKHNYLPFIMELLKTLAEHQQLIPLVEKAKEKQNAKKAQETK
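Schedule: 30 min plus 25 min, room temperature / Material: human UCH37 within purified proteasomes / Technique: AMC fluorescence intensity at 355/460 nm / Buffer or medium: pH 7.4 Tris-HCl (50 mM) with ovalbumin, ATP-MgCl2, DTT / Controls: wells without proteasome as full block, compound-free enzyme plus substrate as uninhibited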
Ecoli rRNA inh OD600: recorded beside Ecoli rRNA inh, whose call it bears; OD600 change, %; measured here: OD600 growth;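 optical density of the mix in the first replicate; 0 = DMSO median and -100 = no signal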
Ecoli rRNA inh RFP: second read-out of Ecoli rRNA inh, no call of its own (marks repeat the call); RFP signal change, %; measured here: RFP humanized mutant strains;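 first replicate; 0 = DMSO median and -100 = no signal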
* hit, by the source's call; i = inactive; ? = inconclusive; . = not tested or not shown. Some of the compounds tested. The share of hits here may be higher or lower than overall.

SMILES	Ecoli growth	FGF22 binding	MLL AF4-AF9 inh	T cruzi repl	A1 inh	Beta cell apopt	Ecoli rRNA inh	Ecoli rRNA inh OD600	Ecoli rRNA inh RFP	UCH37 inh
Cc1cc(NCC2CCCCC2)nc2ccccc12	0.56	i	2.5	44	-0.5	51	-27	-75	-11	-17
COCCOC(=O)C1=C(C)N=C2SCCC(=O)N2C1c1cccs1 (centres undefined)	0.69	i	-0.6	-2	-0.5	1	10	2	1.7	5.1
Cc1ccc(/C=N\NC(=O)c2ccc(Cn3cc(Br)c([N+](=O)[O-])n3)o2)o1	.	i	0.3	74*	-0.5	-4	4	5	-1.6	.
O=C(CN1CCCCC1)NNc1nc(-c2ccccc2)c2cc(Br)ccc2n1	0.66	i	0.9	3	-0.6	6	-7	-12	3.6	2.3
COC(=O)c1ccc(NC(=O)CN(c2ccc(OC)cc2)S(C)(=O)=O)cc1	0.68	.	.	-2	-0.6	2	.	.	.	0.7
COc1ccc(-c2sc3cc(OC)c(OC)cc3c2-c2ccc(O)cc2)cc1	0.7	i	-1.4	.	0.2	8	-1	22	-6.6	-14
COc1ccc(N2CCN(c3oc(COc4ccccc4Cl)nc3C#N)CC2)cc1	0.71	.	.	27	-0.3	2	.	.	.	2.8
COc1ccc(CNC(=O)CSc2nnc3c(Cl)cc(C(F)(F)F)cn23)cc1OC	0.71	i	-0.7	-9	0.5	-3	8	9	0.8	0.7
Cc1ccc(NC(=O)CS(=O)(=O)c2cn(C)c3ccccc23)c(C)c1	0.69	i	2.6	-14	0.8	-3	-1	0	-0.6	2.2
CCOC(=O)Cc1csc(NC(=O)CCc2ccc(S(=O)(=O)N3CCOCC3)cc2)n1	0.71	i	5.4	-3	0.0	6	4	2	3.2	2.5
C=CCn1c(=O)c2ccccc2n2c(SCC(=O)NC(C)C)nnc12	0.69	i	-1.7	-9	.	.	0	4	-2.4	5.8
CC12CCC(=O)N1C(C(=O)Nc1nnc(SCc3ccccc3F)s1)CS2 (centres undefined)	.	i	-0.6	2	0.4	0	-4	-20	1.9	.
O=C(Nc1ccc2oc(-c3cccnc3)nc2c1)c1ccc([N+](=O)[O-])o1	0.66	i	-1.2	29	.	.	4	5	-0.5	2.0
CN(C)CCC(Oc1ccccc1OCc1ccccc1)c1ccccc1 (centres undefined)	0.63	i	5.0	26	-0.5	-11	-30	-26	-4.3	8.3
O=C(NCc1n[nH]c(=S)n1-c1ccc(F)cc1)c1ccc(S(=O)(=O)N2CCCCC2)cc1	0.68	i	-4.9	0	0.9	-2	-1	3	0.8	0.4
COc1cc(C(=O)Nc2ccccn2)cc(OC)c1OC	0.75	.	.	-12	-0.1	0	.	.	.	-1.5
CN1CCN(C(c2ccc(Cl)cc2)c2cc(Cl)c3cccnc3c2O)CC1 (centres undefined)	.	i	85*	44	0.1	68	-55	-74	-28	.
Fc1ccccc1Cn1nnc2c(-n3ccnc3)ncnc21	0.72	.	.	-3	0.8	-6	.	.	.	2.0
COc1ccccc1Nc1nc(-c2cccc([N+](=O)[O-])c2)cs1	0.69	i	-14	38	-1.0	25	-2	-2	-0.8	3.8
Cc1ccc(/C=C2\Oc3cc(OCC(=O)NN)ccc3C2=O)o1	0.69	i	0.7	-3	-0.6	-3	-3	10	-3.5	0.9
COc1cc2nc(SCc3ccc(C(F)(F)F)cc3)n(Cc3cccs3)c(=N)c2cc1OC	0.68	.	.	27	0.6	-3	.	.	.	-11
COc1cccc(NC(=O)Nn2cnnc2)c1	0.7	i	-1.8	-22	0.2	-3	7	6	-1.0	2.0
COc1ccc(CN2C[C@H](Cc3ccccc3)[C@@H](CC(=O)Nc3ccccc3)C2=O)cc1	.	i	0.5	16	0.3	5	-18	-33	28	1.9
Cc1cccc(NC(=O)CSc2nc(N)c(NC(=O)c3ccccc3F)c(=O)[nH]2)c1	0.72	i	-1.4	1	0.9	-2	5	7	-1.0	4.3
Cc1ccc(N2C(=O)[C@@H]3C(C(=O)CCN4C(=O)c5ccccc5C4=O)=NN[C@@H]3C2=O)cc1	0.68	i	2.4	-29	0.9	2	3	4	-3.3	2.0
COc1ccc([C@@H]2CC=C(C(=O)O)[C@H](c3ccc(Br)cc3)N2S(=O)(=O)c2ccc(C)cc2)cc1OC	0.7	i	0.5	.	-0.3	3	-10	-12	-2.5	1.1
COc1ccc(CCNC(=O)CNS(=O)(=O)c2cccs2)cc1OC	0.63	i	3.1	-15	?	-7	13	2	7.5	3.1
Cc1cc(Cl)ccc1OCC(=O)NCCC(=O)O	0.65	i	-2.3	1	1.9	-1	5	-3	-3.1	2.6
COc1ccccc1Nc1cc(C)nc(Nc2ccccc2OC)n1	0.67	i	3.4	.	.	.	-26	-36	5.1	-1.0
CCCCn1c(N)c(N(C)C(=O)c2cc3c(s2)CCCCC3)c(=O)[nH]c1=O	0.7	i	-0.2	.	-0.3	-1	4	4	2.8	-3.5
COc1ccccc1-c1coc2cc(OC(=O)/C=C/c3ccccc3)ccc2c1=O	0.73	.	.	-35	-0.3	-4	.	.	.	-0.3
COc1ccc(CC(=O)N/N=C(\C)CC(=O)NCc2ccco2)cc1OC	.	i	-4.4	2	0.1	-8	5	2	-0.2	.
CC1=NN(C(=O)c2ccc(Br)cc2)C(O)(C(F)(F)OC(F)(F)F)C1 (centres undefined)	0.66	.	.	-5	-0.6	22	.	.	.	1.6
COc1ccc(-c2nc(C#N)c(N3CCN(c4cccc(Cl)c4)CC3)o2)cc1OC	0.72	.	.	-17	0.2	-4	.	.	.	-52
NS(=O)(=O)c1ccc(NNC(=O)c2ccc(Br)o2)c([N+](=O)[O-])c1	.	i	21	.	-0.5	14	16	34	-1.6	.
COc1cccc(-c2ccc(NC(=O)C3CCCN(Cc4cnn(C(C)C)c4)C3)cc2)c1 (centres undefined)	0.68	i	-7.7	36	0.1	3	-24*	-12*	5.2*	4.7
O=C1CC2(CCN(C(=O)C(=O)c3c[nH]c4ccccc34)CC2)Oc2ccccc21	0.69	i	5.5	-2	-1.0	-3	-6	-20	7.0	-5.7
O=C(N/N=C/C=C\c1ccco1)c1ccccn1	.	i	-6.0	0	0.1	3	7	2	5.4	.
CC[C@H]1CC2CN3CCc4c([nH]c5c([C@H]6C[C@H]7[C@H](CC)CN(C)[C@@H](Cc8c6[nH]c6ccccc86)[C@H]7C(=O)OC)c(OC)ccc45)C(C(=O)OC)(C2)C13	0.74	.	.	51	-0.1	49	.	.	.	8.0
CCn1c(CN2c3ccccc3Sc3ccccc32)n[nH]c1=S	0.68	i	-3.6	-8	0.1	-1	.	.	.	2.7
Cn1nc(C(=O)NCc2cccc(F)c2)cc1C(=O)NCc1cccc(F)c1	0.69	i	2.2	.	0.1	-4	-2	-15	4.1	3.2
O=C(N/N=C/c1ccccc1[N+](=O)[O-])C(=O)N1CCCC1	.	i	-1.8	-26	-2.5	-2	9	-8	4.2	.
Cc1nc2c(oc3ccccc32)c(=O)o1	0.62	.	.	-10	-0.3	-2	.	.	.	-2.9
Cc1ccc(NC(=O)CN2C(=O)N/C(=C/c3cccn3-c3ccc(C(=O)O)cc3)C2=O)cc1	0.67	.	.	.	-0.3	-10	.	.	.	21*
COC(=O)c1sc(N)c(C(=O)OC)c1COC(=O)CCNS(=O)(=O)c1ccc(C)cc1	0.7	.	.	12	0.2	2	.	.	.	-1.0
CN(C)CCOc1ncnc2c1oc1ccccc12	0.72	.	.	5	0.6	11	.	.	.	1.1
Cc1csc(NC(=O)CSc2nncc(=O)n2N)n1	0.71	i	1.9	-8	-0.8	-7	16	10	1.0	1.9
CC(=O)NC(c1ccco1)c1ccc2cccnc2c1O (centres undefined)	.	.	.	45	2.3	90*	-30	-46	-10	3.0
NS(=O)(=O)c1ccc(NC(=O)CSc2nc3c(cnn3-c3ccccn3)c(=O)[nH]2)cc1	0.64	i	4.7	.	.	.	3	14	0.8	2.5
CCN(CC)C(=O)C1CCCN(C/C=C/c2ccccc2[N+](=O)[O-])C1 (centres undefined)	0.64	i	-3.1	10	0.3	-1	6	2	1.6	1.3
COc1ccc2cc(CCl)c(Cl)nc2c1	0.72	i	-0.6	1	0.4	.	20	5	2.9	1.9
COc1ccc(NC2CCCN(C(=O)CN3CCOC3=O)C2)cc1 (centres undefined)	0.68	i	-0.6	-17	0.5	-7	12	11	12	-3.4
CCCCCn1c(=O)[nH]c2cc(C(=O)NCCc3ccc(OC)c(OC)c3)ccc2c1=O	0.72	.	.	8	0.2	1	.	.	.	0.1
CC1(C)N=C(c2ccc(Cl)cc2Cl)C(=O)N1	0.68	.	.	-9	0.3	-3	.	.	.	-0.7
O=C(COC(=O)c1ccccc1Cc1ccccc1)NC1CCS(=O)(=O)C1 (centres undefined)	0.67	i	-9.5	-9	0.2	.	-4	-9	-2.8	3.6
Cc1ccc(CNC(=O)C(=O)NCC2OCCN2S(=O)(=O)c2ccc(Cl)cc2)cc1 (centres undefined)	0.75	i	0.2	-15	0.2	7	5	4	3.0	1.5
CCC1CCCCN1CCCNC(=O)CN1C(=O)CSc2ccc(S(=O)(=O)N3CCC(C)CC3)cc21 (centres undefined)	.	i	6.2	9	-0.3	1	4	0	-2.5	.
CC1CCc2nc(/C(C#N)=C/c3cccnc3)sc2C1 (centres undefined)	.	i	1.2	16	0.7	3	6	-7	6.6	-5.8
O=C(CN1C(=O)COc2ccc(S(=O)(=O)N3CCCCC3)cc21)NCc1ccccc1Cl	0.67	i	-2.2	-1	0.8	6	8	2	0.1	1.7
COCCCn1cnc2c(c1=O)c1nc3ccccc3nc1n2-c1ccccc1	0.69	.	.	17	1.6	6	.	.	.	-23

2 records drawn at random from those above:
SMILES	Ecoli growth	FGF22 binding	MLL AF4-AF9 inh	T cruzi repl	A1 inh	Beta cell apopt	Ecoli rRNA inh	Ecoli rRNA inh OD600	Ecoli rRNA inh RFP	UCH37 inh
CCCCCn1c(=O)[nH]c2cc(C(=O)NCCc3ccc(OC)c(OC)c3)ccc2c1=O	0.72	.	.	8	0.2	1	.	.	.	0.1
O=C(COC(=O)c1ccccc1Cc1ccccc1)NC1CCS(=O)(=O)C1 (centres undefined)	0.67	i	-9.5	-9	0.2	.	-4	-9	-2.8	3.6

(list continues)
SMILES	Ecoli growth	FGF22 binding	MLL AF4-AF9 inh	T cruzi repl	A1 inh	Beta cell apopt	Ecoli rRNA inh	Ecoli rRNA inh OD600	Ecoli rRNA inh RFP	UCH37 inh
C#CC[N+]1(CC#Cc2cccc(C)c2)CCCCC1	0.66	i	4.0	6	0.7	4	16	10	1.6	1.1
COC(=O)c1ccccc1NC(=O)c1noc2c1CCCC2	0.7	.	.	24	-0.5	2	.	.	.	-0.5
Cc1ccc(S(=O)(=O)N(CC(=O)N2CCc3ccccc3C2)c2ccc(Cl)c(Cl)c2)cc1	0.66	.	.	46	0.5	8	.	.	.	2.9
N#CCC(=O)Nc1ccc(C(=O)NNC(=S)NC2CC2)cc1	0.68	i	1.5	.	.	.	0	3	-2.6	4.5
Cc1ccc(-n2c(C)nc3c(cnn3-c3ccc(F)cc3)c2=O)cc1	0.78	.	.	1	0.3	12	.	.	.	0.8

Compound activity deposited in PubChem BioAssay by several laboratories.
